Mtb growth: M. tuberculosis H37Rv growth inhibitors, H37Rv strain (AID 1626); actives 0.95% (n = 220,000); inhibition, % at 10 µM; hits with a dose series show IC50 in µM; M. tuberculosis H37Rv growth inhibition; higher % means a stronger effect;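 active = confirmed in a dose series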;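 note: bacteria incubated seven days before Alamar blue readout; 0% = bacteria only wells and 100% = bacteria with antibiotic wells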
YopH PTP inh: inhibitors of Yersinia enterocolitica YopH tyrosine phosphatase; AID 898; actives 0.16% (n = 140,000); inhibition, %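 (about 10 µM by stock and volumes)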; fluorescence Ex485/Em525;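 active = inhibition of 50% or more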;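 note: controls were vehicle for no effect and minimum signal wells for full effect; inactives centre near -20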
RecA intein inh: blocks M. tuberculosis RecA intein splicing. P9WHJ3. actives 0.75% (n = 290,000). inhibition, %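 (about 9 µM by stock and volumes)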. cell-free RecA intein splicing, fluorescence. AID 2221; in the data active = inhibition above about 30%;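 note: 0% = vehicle wells and 100% = reference inhibitor control wells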
Target sequence (P9WHJ3 whole entry, looked up): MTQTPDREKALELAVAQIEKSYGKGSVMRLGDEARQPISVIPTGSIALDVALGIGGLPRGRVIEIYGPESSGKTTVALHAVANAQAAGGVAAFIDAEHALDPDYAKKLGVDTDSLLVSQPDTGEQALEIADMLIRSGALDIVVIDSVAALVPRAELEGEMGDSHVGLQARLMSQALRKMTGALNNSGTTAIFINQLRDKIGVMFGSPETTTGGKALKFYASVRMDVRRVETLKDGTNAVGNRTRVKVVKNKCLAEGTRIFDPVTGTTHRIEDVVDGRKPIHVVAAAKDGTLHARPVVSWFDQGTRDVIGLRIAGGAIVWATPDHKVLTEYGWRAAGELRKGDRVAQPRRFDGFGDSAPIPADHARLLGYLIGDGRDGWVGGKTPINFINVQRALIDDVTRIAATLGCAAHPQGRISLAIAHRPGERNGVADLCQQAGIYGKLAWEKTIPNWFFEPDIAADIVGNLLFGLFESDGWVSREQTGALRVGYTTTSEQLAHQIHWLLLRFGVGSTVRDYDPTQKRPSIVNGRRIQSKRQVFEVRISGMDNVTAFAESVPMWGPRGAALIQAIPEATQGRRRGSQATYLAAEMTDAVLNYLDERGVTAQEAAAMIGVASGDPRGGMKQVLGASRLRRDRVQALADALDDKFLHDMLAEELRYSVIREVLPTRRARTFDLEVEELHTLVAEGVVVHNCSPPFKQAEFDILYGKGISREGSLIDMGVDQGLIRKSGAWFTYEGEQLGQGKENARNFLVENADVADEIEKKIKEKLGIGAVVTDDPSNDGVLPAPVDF
Arbovirus inh: blocks arbovirus infection | inhibition, % at 10 µM | arbovirus infection cell-based antiviral screen | actives 0.37% (n = 200,000);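 active = inhibition from about 30%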;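 note: bluetongue infection of BSR cells; cell survival read as ATP light after 72 h; 0% = infected wells without compound and 100% = uninfected wells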
Mtb bLac sens: beta-lactam sensitization of Mtb H37Rv; inhibition, % at 25 µM; M. tuberculosis H37Rv growth with meropenem, percent inhibition; hits of this screen are not shown here; actives 0.27% (n = 330,000); AID 434955;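 active = about 74% or more and at least 40 points above the plate without the antibiotic, then above 30% in a dose series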;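 note: growth measured after seven days incubation then overnight dye step; 0% = bacteria only wells and 100% = bacteria with antibiotic; twin plates without the antibiotic show which effects depend on it; some results filed as inactive read as strong as hits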
Arbovirus inh repeat: recorded beside Arbovirus inh, whose call it bears; inhibition, %; measured here: 10K subset replicate screen; many hits read low in the repeat;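 first of two repeat runs on a subset; 0% = infected and 100% = uninfected wells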
Active calls of the source: *; . = no result given. Not all compounds are listed; count on the stated rates, not on these rows.

SMILES	Mtb growth	YopH PTP inh	RecA intein inh	Arbovirus inh	Mtb bLac sens	others
COc1ccccc1CNC(=O)CCNS(=O)(=O)c1ccc2c(c1)CC(C)N2C(C)=O (centres undefined)	.	.	-0.7	.	4
O=C(O)CCCCCCCCc1cn(CC2CCCCC2)nn1	.	.	-2.7	.	4
CC1CCCN(C2=NC(=O)/C(=C/c3cn(-c4ccccc4)nc3-c3cccc(S(=O)(=O)N(C)C)c3)S2)C1 (centres undefined)	0%	-5	1.3	-5	4
CN(C)CCC1c2ccc(Cl)cc2CCc2cccnc21 (centres undefined) (tested in a mixture with another compound)	-9%	.	-0.8	.	6
c1csc(-c2ncc3ccccn23)c1	-4%	7	0.0	-3	2
Cc1ccc(OCC(=O)Nc2ccc3oc(=O)ccc3c2)cc1C	.	.	1.3	.	42
Nc1c(C(=O)Nc2ccc(Cl)cc2)oc2ccccc12	11%	-40	0.0	3	-2	Arbovirus inh repeat=7
O=C(CN1CCCN(S(=O)(=O)c2ccc(F)cc2)CC1)Nc1cccc(F)c1	.	.	1.0	.	2
CCOC(=O)c1cc2c(=O)n3ccccc3nc2n(C(C)C)c1=NC(=O)c1c(-c2ccccc2Cl)noc1C	6%	.	-8.7	-13	6
CCCCCCN(C(=O)CCCCCN1C(=O)NC(c2ccc(-c3ccccc3)cc2)C(C(=O)OCc2ccccc2)=C1C)C(C(=O)NCCCC)c1ccc(O)cc1 (centres undefined)	20%	-13	.	12	.
O=C(c1cc2nc(-c3ccc(Cl)cc3)cc(C(F)(F)F)n2n1)N1CCOCC1	6%	.	-0.9	4	5
Cc1ccc(NC2c3ncccc3C(=O)N2Cc2ccco2)c(C)c1 (centres undefined)	9%	.	.	15	1
Cc1ccc(Sc2c(C)[nH]n(C(C)(C)C)c2=O)cc1	-5%	-39	50*	2	-17
CCOC(=O)C1CCN(C(=O)c2ccccc2NC(=O)c2ccc(Br)cc2)CC1	-8%	-18	0.8	1	-5
O=C(NC(O)C(=O)c1ccccc1)c1cccs1 (centres undefined)	-6%	-22	.	-1	-2	Arbovirus inh repeat=-3

Structures from the list above with nitrogen in an aromatic ring, in the order listed:
SMILES	Mtb growth	YopH PTP inh	RecA intein inh	Arbovirus inh	Mtb bLac sens	others
O=C(O)CCCCCCCCc1cn(CC2CCCCC2)nn1	.	.	-2.7	.	4
CC1CCCN(C2=NC(=O)/C(=C/c3cn(-c4ccccc4)nc3-c3cccc(S(=O)(=O)N(C)C)c3)S2)C1 (centres undefined)	0%	-5	1.3	-5	4
CN(C)CCC1c2ccc(Cl)cc2CCc2cccnc21 (centres undefined) (tested in a mixture with another compound)	-9%	.	-0.8	.	6
c1csc(-c2ncc3ccccn23)c1	-4%	7	0.0	-3	2
CCOC(=O)c1cc2c(=O)n3ccccc3nc2n(C(C)C)c1=NC(=O)c1c(-c2ccccc2Cl)noc1C	6%	.	-8.7	-13	6
O=C(c1cc2nc(-c3ccc(Cl)cc3)cc(C(F)(F)F)n2n1)N1CCOCC1	6%	.	-0.9	4	5
Cc1ccc(NC2c3ncccc3C(=O)N2Cc2ccco2)c(C)c1 (centres undefined)	9%	.	.	15	1
Cc1ccc(Sc2c(C)[nH]n(C(C)(C)C)c2=O)cc1	-5%	-39	50*	2	-17

(continued)
SMILES	Mtb growth	YopH PTP inh	RecA intein inh	Arbovirus inh	Mtb bLac sens	others
COc1cccc(NC(=O)CCN2C(=O)c3ccccc3Sc3ncccc32)c1	.	.	1.2	.	1
Cn1cc2ccc(N)cc2n1	-4%	.	.	-3	.
O=c1c2ccccc2[nH]c(=S)n1Cc1cccnc1	-9%	-39	.	4	0	Arbovirus inh repeat=1
CCCCC(=O)NNC(=O)N1c2ccccc2Sc2ccccc21	.	.	-2.0	.	5
CCNc1sc(C(=O)c2cccs2)c(N)c1-c1nc2ccccc2s1	4%	-6	-12	-6	88
COc1cccc(C(=O)N2CCN(C3CCN(Cc4ccccc4)CC3)CC2)c1	.	-22	.	-7	.
COc1ccc(Br)cc1/C=N/NC(=O)c1ccc(OC)c(OC)c1	-1%	.	-1.1	-2	1
O=C(COC(=O)CCSc1ccccc1)NCc1ccccc1	4%	.	0.7	1	5
COc1ccc(OC)c(C(=O)/C=C/c2cccnc2)c1	.	.	2.2	.	98
CC(=O)C1=C(C)NC(SCC(=O)c2ccc(F)cc2)=C(C#N)C1CC(C)C (centres undefined)	3%	3	-0.9	0	13
CC(C)=C1SC(N2CCN(c3ccc(C)c(Cl)c3)CC2)=NC1=O	-4%	.	.	.	-4
Cc1ccc(NC(=O)CCC(=O)c2cc(C)sc2C)nc1	.	.	2.4	.	-9
COc1cccc(NC(=O)CCN2CCN(C)CC2)c1	3%	-40	-0.7	10	2
COC(=O)c1cc2n(n1)CCN(Cc1ccccc1F)C2=O	4%	-37	-2.4	-4	-4
Cc1ccc2c(=O)oc(N(C)C)nc2c1	2%	.	-0.2	-5	-5
O=C(Nc1ccc(-c2nc3ccccc3[nH]2)cc1)c1c(F)c(F)c(F)c(F)c1F	5%	.	-1.3	-4	10
CCS(=O)(=O)c1ccc2oc(Nc3cc(Cl)ccc3OC)nc2c1	.	.	2.1	.	-2
CCCNC(=O)Cc1c(OC)ccc2cc(Br)ccc12	3%	-19	1.4	5	2
Cc1cc(OCC(=O)Nn2cnnc2)ccc1Br	-5%	-28	0.8	0	-6
CC(C)(C)CN1C(N)=NC[C@@H]1c1ccccc1	-6%	.	-0.6	.	-2
N#CC1=C(N)SC(N)=C(C#N)C1c1ccnc2ccccc12	-3%	-17	0.6	-3	16
CCc1cc2c(=O)c(-c3ccc4c(c3)OCCO4)c(C)oc2cc1OS(C)(=O)=O	1%	-26	-1.5	-7	8
COc1ccc(N(Cc2cc3ccccc3[nH]c2=O)S(=O)(=O)c2ccccc2)cc1	3%	.	-0.2	.	7
Cn1c(=O)n(Cc2ccco2)c(=N)c2c3c(sc21)CCCC3	1%	.	.	2	-2
CCC(CC)C(=O)Nc1nnc(S(=O)(=O)N2CCCc3ccccc32)s1	.	.	-0.4	.	4
O=C(NCc1cccc(Cl)c1)c1ccncc1	.	.	2.2	.	-4
O=C(Nc1ccccc1OC(F)F)c1ccc(Br)o1	-5%	-11	2.6	-4	8
Cn1cccc1/C=N/NC(=O)C(O)c1ccccc1 (centres undefined)	0%	.	-1.5	.	-3
COc1ccc(NC(=O)Cn2nnc(C(=O)NCc3cccs3)c2N)cc1OC	.	.	-0.1	.	6
Cc1ccc(C)c(OCc2n[nH]c(=S)o2)c1	-2%	.	0.2	.	-1
O=S(=O)(c1ccc2ccccc2c1)N1CCN(S(=O)(=O)N2CCOCC2)CC1	-2%	-54	1.6	-9	-8
CN(Cc1ccccc1)C(=C(Cl)Cl)C(=C1NCCN1)[N+](=O)[O-]	0%	.	1.1	-1	2
O=c1cc(CN2CCN(c3cccc(Cl)c3)CC2)c2cc(O)c(-c3ccccc3)cc2o1	.	-10	-5.2	7	10
CC[n+]1c(C)cc(C)n1-c1ccccc1	-2%	.	-1.8	-1	0
O=C(NCc1ccc2c(c1)OCO2)c1ccc2c(c1)OCCO2	4%	-26	-1.0	2	-4
COC(=O)c1ccccc1NC(=O)c1cnc2sccn2c1=O	-3%	10	1.1	-3	7
O=C(CSc1nc2ncc(Cl)cc2[nH]1)c1c[nH]c2ccccc12	-6%	.	-2.0	.	34
CCCC(C(=O)n1nc(C)cc1C)C(NS(=O)(=O)c1ccc(C)cc1)c1ccccc1 (centres undefined)	0%	-21	0.7	-4	-4
O=C(Nc1ccc2c(c1)OCCO2)c1cccc(Cl)c1Cl	.	.	0.0	.	12
Cc1cc(C(=O)CSc2nnc(-c3ccco3)o2)c(C)n1CC1COc2ccccc2O1 (centres undefined)	13%	-37	6.9	24	.
Cc1n[nH]c(=O)c2c(NC(=O)CSc3c(Cl)cccc3Cl)oc(C)c12	.	.	-0.9	.	1
O=C1CC(SC(=Nc2ccccc2)Nc2ccccc2)C(=O)N1c1cccc(Cl)c1 (centres undefined)	6%	1	-0.6	-12	-5
COc1ccc(-c2nnc3n2N=C(c2cccc(Br)c2)CS3)cc1OC	-9%	-24	.	-3	.
CCCc1c(C(=O)Nc2cc(C(C)(C)C)on2)cnn1-c1ccccc1	-5%	.	1.2	.	-1
CC(Sc1nnc(CC(C)c2ccccc2)n1N)C(N)=O (centres undefined)	.	.	-1.2	.	0
Cc1cc(C)c(S(N)(=O)=O)c(C)c1-n1cnnn1	-13%	-120	-2.9	1	4
CCOc1ccc(OCc2ccc(C(=O)N3CCOCC3)cc2)cc1	-4%	-12	-0.9	3	-7
CCc1cc(=O)oc2c(C)c(OCC(=O)N3CCC(C(=O)O)CC3)ccc12	.	.	2.4	.	-3
Cc1snc(S(=O)(=O)/C(C#N)=N/Nc2ccc(C(F)(F)F)cc2)c1C#N	-1%	-26	-3.6	3	-5
CC(=O)c1ccc(NC(=O)COC(=O)c2nc(Cl)ccc2Cl)cc1	4%	.	0.6	1	-2
O=S(=O)(c1ccccc1)c1cnc(-c2cccnc2)nc1-c1ccccc1	-6%	1	-0.1	1	2
CCOc1ccc(C(=O)N(Cc2ccc(N(C)C)cc2)C2CCS(=O)(=O)C2)cc1 (centres undefined)	.	-10	-0.9	-9	-2
COc1ccc(Cc2nnc(NC(=O)CSc3ccc(Cl)cc3)s2)cc1OC	-1%	-9	.	-6	.
COc1ccc(C(C(=O)NC2CCCC2)N(C(=O)c2ccoc2C)c2ccccc2)cc1 (centres undefined)	12%	-10	1.4	-5	1
CC(C)OC(=O)c1cc(C(=O)c2cc(F)ccc2O)coc1=N	0%	3	-11	10	52
CCCCC1=CC2=CC(=O)C(C)(OC(=O)CC)C(=O)C2=CN1CCc1ccccn1 (centres undefined)	-7%	.	-8.1	.	-5
Cc1nn(C(C)(C)C)c(OC(=O)C2CCCC2)c1S(=O)(=O)c1ccccc1	.	-16	12	0	.
O=C1/C(=C/c2ccc(N3CCOCC3)o2)SC(=Nc2ccccc2)N1CCc1c[nH]c2ccccc12	1%	-29	1.9	-40	85
COc1ccc(N=Cc2c(O)n(Cc3ccccc3)c(=S)[nH]c2=O)c(OC)c1	7%	.	-8.4	.	85
Oc1ccc(/C=C/c2cnccn2)cc1	-1%	.	0.5	.	-9

Continuation.
SMILES	Mtb growth	YopH PTP inh	RecA intein inh	Arbovirus inh	Mtb bLac sens	others
Nc1ccc(NC(=O)NC2CCCCC2)cc1[N+](=O)[O-]	-1%	.	0.4	-14	4
O=C(CCNC(=O)c1ccc(Br)cc1)Nc1ncccc1O	.	.	0.3	.	-8
CC(C)Cn1c(N)c(C(=O)COC(=O)C2CCCCC2)c(=O)n(C)c1=O	-3%	-30	1.1	3	58
O=C(Nc1nnc(Cc2ccc(Cl)cc2)s1)c1ccncc1	-5%	.	.	.	0
CC1=C(C(=O)OCc2ccccc2)C(c2ccccc2)NC(=O)N1CCCC(=O)O (centres undefined)	.	.	-1.2	.	0
O=C(Nc1nc(-c2cccs2)cs1)c1ccc(Cl)s1	16%	-21	6.9	-22	4
O=C(O)c1ccccc1Nc1ccc([N+](=O)[O-])cc1C(=O)O	-5%	.	4.6	.	-2
O=C(Nc1ccc(Br)cc1)c1ccc2c(c1)OCO2	.	.	-3.9	.	-7
O=C(CSc1ccc(-c2ccco2)nn1)c1ccccc1	-5%	-21	-0.1	8	-1
O=C1C(=O)N(Cc2cccnc2)C(c2cccc([N+](=O)[O-])c2)/C1=C(/O)c1ccc2c(c1)OCO2 (centres undefined)	.	.	1.1	.	-1
O=C(NCc1nc(-c2ccccc2)no1)Nc1ccc(F)cc1	7%	.	-0.2	-2	1
Cc1cc(C(=O)O)c(C)n1C1CC1	15%	.	0.4	.	-7
COc1cccc(C(C(=O)NCc2ccco2)N(Cc2ccco2)C(=O)Cn2nnc3ccccc32)c1 (centres undefined)	.	-23	-1.1	0	-4
CN(Cc1nc(-c2cccnc2)no1)S(=O)(=O)c1ccc2ccccc2c1	-6%	34	5.6	2	-7
O=C(Nc1ccc(Br)cc1F)c1cccnc1	-1%	-3	0.0	-9	3
COc1ccccc1C(=O)Nc1ccc2nc(SCC(=O)N(C)C)sc2c1	62%	-19	-2.4	7	33
CCOc1ccc(NC(=O)CN2C(=O)NC(CCSC)C2=O)cc1 (centres undefined)	-9%	.	-5.4	16	-10
CC1=C(c2ccccc2)[N+](=O)C2(CCCC2)N1[O-]	-10%	-37	0.5	4	2
CCCCCOc1ccc(C(=O)OCC(=O)Nc2cc(C)c(C)cc2[N+](=O)[O-])cc1	-1%	-18	1.9	-6	-8
CCc1noc(C)c1C(=O)Nc1nc2ccc(OC)cc2s1	.	.	0.0	.	18
O=C(NCc1ccc(F)cc1)c1cc2ccccn2n1	2%	-42	-6.6	0	-11	Arbovirus inh repeat=-5
COc1cc2c(cc1OC)CN(c1nc(-c3cccnc3)nc3ccccc13)CC2	3%	.	.	-28	68
O=S(=O)(NC1CCCC1)c1cc(F)ccc1F	.	.	-1.6	.	-11
O=C(c1noc2c1CCCC2)N1CCCC(N2CCN(c3ccccc3F)CC2)C1 (centres undefined)	.	.	-0.1	.	7

Screening data as filed in PubChem BioAssay.
